Mtb growth: M. tuberculosis H37Rv growth inhibitors, H37Rv strain (AID 1626) | M. tuberculosis H37Rv growth inhibition; higher % means a stronger effect | inhibition, % at 10 µM, or IC50 in µM where a hit was titrated | 220,000 compounds, 0.95% hits;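 active means confirmed in a dose series; inconclusive means inhibition above 80% but not taken into the dose series; inactive means below 80% or under 30% at every dose of the series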;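 further: bacteria incubated seven days before Alamar blue readout; 0% = bacteria only wells and 100% = bacteria with antibiotic wells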
YopH inh: inhibitors of Yersinia enterocolitica YopH tyrosine phosphatase; fluorescence Ex485/Em525; inhibition, %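 (about 10 µM by stock and volumes)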; 140,000 compounds, 0.16% hits;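 active means inhibition of 50% or more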;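 further: controls were vehicle for no effect and minimum signal wells for full effect; inactives centre near -20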
Mtb bLac sens: beta-lactam sensitization of Mtb H37Rv | M. tuberculosis H37Rv growth with meropenem, percent inhibition; hits of this screen are not shown here | inhibition, % at 25 µM | 330,000 compounds, 0.27% hits;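 active means about 74% or more and at least 40 points above the plate without the antibiotic, then above 30% in a dose series; inconclusive means first-round hits that could not be retested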;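 further: growth measured after seven days incubation then overnight dye step; 0% = bacteria only wells and 100% = bacteria with antibiotic; twin plates without the antibiotic show which effects depend on it; some results filed as inactive read as strong as hits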
Arbovirus anti: antivirals against arbovirus infection; arbovirus infection cell-based antiviral screen; inhibition, % at 10 µM; AID 1251; 200,000 compounds, 0.37% hits;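 active means inhibition from about 30%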;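 further: bluetongue infection of BSR cells; cell survival read as ATP light after 72 h; 0% = infected wells without compound and 100% = uninfected wells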
RecA intein inh: inhibitors of M. tuberculosis RecA intein splicing | cell-free RecA intein splicing, fluorescence | AID 2221 | 290,000 compounds, 0.75% hits | inhibition, %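 (about 9 µM by stock and volumes)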 | P9WHJ3; in the data active means inhibition above about 30%; inconclusive means no clear call, values can overlap the other calls;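 further: 0% = vehicle wells and 100% = reference inhibitor control wells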
Target sequence (P9WHJ3 whole entry, looked up): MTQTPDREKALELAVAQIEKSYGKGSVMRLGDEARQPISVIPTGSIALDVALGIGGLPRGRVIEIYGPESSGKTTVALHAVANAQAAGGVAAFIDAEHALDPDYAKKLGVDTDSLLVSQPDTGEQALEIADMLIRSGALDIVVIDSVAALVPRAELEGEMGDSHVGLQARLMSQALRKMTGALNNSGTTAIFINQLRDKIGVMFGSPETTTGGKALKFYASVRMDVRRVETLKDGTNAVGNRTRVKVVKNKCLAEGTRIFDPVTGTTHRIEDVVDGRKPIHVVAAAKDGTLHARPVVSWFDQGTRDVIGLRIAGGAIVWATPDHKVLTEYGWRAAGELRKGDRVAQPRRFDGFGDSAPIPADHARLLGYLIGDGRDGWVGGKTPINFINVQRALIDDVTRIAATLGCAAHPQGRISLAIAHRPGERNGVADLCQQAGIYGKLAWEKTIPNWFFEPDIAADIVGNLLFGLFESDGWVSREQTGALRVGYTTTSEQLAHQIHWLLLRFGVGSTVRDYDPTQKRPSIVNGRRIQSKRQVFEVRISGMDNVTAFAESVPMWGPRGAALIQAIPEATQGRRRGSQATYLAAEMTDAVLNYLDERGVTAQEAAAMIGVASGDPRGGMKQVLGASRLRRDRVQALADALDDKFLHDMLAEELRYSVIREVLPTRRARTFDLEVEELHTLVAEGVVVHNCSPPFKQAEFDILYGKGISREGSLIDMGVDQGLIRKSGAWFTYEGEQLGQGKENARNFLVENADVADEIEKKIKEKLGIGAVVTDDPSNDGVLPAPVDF
Arbovirus anti repeat: recorded beside Arbovirus anti, whose call it bears; inhibition, %; measured here: 10K subset replicate screen; many hits read low in the repeat;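 first of two repeat runs on a subset; 0% = infected and 100% = uninfected wells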
An asterisk follows results filed as active; ? = inconclusive; / = not tested or not shown.

SMILES	Mtb growth	YopH inh	Mtb bLac sens	Arbovirus anti	RecA intein inh	others
COC(=O)c1cccc(OCC(O)Cn2cnc3cc(C)c(C)cc32)c1 (stereo not given)	3%	-23	-14	21	0.8
COc1ccc(CC(=O)NC(C)c2nnc(SCC(=O)Nc3ccccc3F)n2C)cc1 (stereo not given)	2%	/	1	0	-0.7
Cc1cc(C)cc(N2C(=O)CN(Cc3ccccc3)C2=S)c1	/	/	1	/	2.9
CC(Oc1ccc(Cl)cc1)/C(N)=N/O (stereo not given)	1%	/	2	2	1.4
CC(=O)N(CCc1ccccc1C)Cc1cc2cc3c(cc2[nH]c1=O)OCO3	-12%	-2	6	-14	-1.7
O=C(CO/N=C/c1cccc([N+](=O)[O-])c1)NC1CCCCCC1	0%	-37	6	-2	-0.1
CCS(=O)(=O)n1nc(-c2ccco2)nc1N	-6%	/	2	20	-0.2
CC(=O)NS(=O)(=O)c1ccc(NC(=O)CSc2ccccc2)cc1	-2%	/	-5	/	-2.9
CCCCNc1nc2ccccc2nc1NS(=O)(=O)c1ccc(F)cc1	/	/	?	/	-0.9
COc1ccc(CNc2nc3ccccc3n2Cc2ccc(Cl)cc2)cc1OC	6%	-22	2	-17	9.5
CCOc1ccc(CNC(=O)C(=O)c2cn(CC(=O)N3CCOCC3)c3ccccc23)cc1OC	/	/	-2	/	-0.4
CCCS(=O)(=O)c1c(S(=O)(=O)CCC)c2c(C(N)=O)cccn2c1C(=O)c1ccc(F)cc1	9%	/	-1	6	/
COc1ccc(OC)c(N(CC(=O)Nc2ccccc2)S(C)(=O)=O)c1	-10%	-22	7	7	3.6
COc1cccc(CN2CC(C(=O)N3CCCCCCC3)CCC2=O)c1 (stereo not given)	/	/	1	/	1.7
O=C(NCc1ccccc1Cl)C1CCN(S(=O)(=O)N2CCC3(CC2)OCCO3)CC1	/	-30	-6	5	1.6
CCCCC1=CC2=C(c3ccco3)C(=O)C(C)(OC(=O)c3ccc(OC)cc3)C(=O)C2=CN1CCc1ccccn1 (stereo not given)	7%	/	0	/	-4.4
CCOC(=O)SC1=N/C(=C\c2ccc(N(C)C)cc2)C(=O)S1	6%	3	-7	5	-12
COc1ccc2[nH]c(=O)c(CNc3ccccc3OC)cc2c1	-4%	/	-5	/	-3.6
O=c1oc(-c2ccccc2F)nc2scc(-c3ccccc3)c12	41%	/	/	/	-12
FC(F)(F)c1cc(-c2ccccc2)nc(-n2cc(Cl)cn2)n1	-8%	/	0	2	-1.4
CCN(CC)c1nc(-c2ccc(C(=O)NN)cc2)nc(-c2ccc(C(=O)NN)cc2)n1	/	/	0	/	-3.7
CC(C)(C)c1ccc(CN2C(=O)CN=C(c3ccccc3)c3ccccc32)cc1	3%	-8	12	0	27
O=C(Nc1cccc(C(F)(F)F)c1)c1csc(-c2ccncc2)n1	18%	/	5	-5	3.9
COCCn1c(N)c(Sc2ccc(Cl)cc2)c(=O)[nH]c1=O	/	/	4	/	-1.2
CCc1cc2ccc(C)cc2nc1SCC(=O)Nc1cc(C)on1	1%	/	-5	-21	-1.0
SMILES	Mtb growth	YopH inh	Mtb bLac sens	Arbovirus anti	RecA intein inh	others
Cc1sc(-c2cccnc2)nc1OC(=O)C1CC1	3%	/	-2	1	-2.6
CN(C)/C=C1\N=C(c2ccccc2)OC1=O	8%	/	0	-6	-1.8
COc1ccc(-n2c(C)cc(/C=C/c3nc(O)c([N+](=O)[O-])c(=O)[nH]3)c2C)cc1	4%	/	47	9	0.8
CCSc1nnc2c(n1)OC(C)(C)Nc1ccccc1-2	6%	-2	18	5	0.6
CC(=O)N(c1c(C)n(C)n(-c2ccccc2)c1=O)C1(C(=O)NC2CCCC2)CCCCC1	1%	-19	-7	12	0.5	Arbovirus anti repeat=1
COCCc1nc2ccc(C(=O)N3CCCC(CCCO)C3)cc2o1 (stereo not given)	/	/	-6	/	0.8
CCOc1ccc(N(CC(=O)Nc2cccc(Br)c2)S(C)(=O)=O)cc1	/	/	1	/	3.1
COc1ccc(OCCCN2CCc3ccccc3C2)cc1	/	/	-9	/	-3.0
O=C(O)CN1C(=O)NC2(CCOc3ccccc32)C1=O (stereo not given)	11%	/	0	/	-2.9
O=C(c1cnn2c(C(F)(F)F)cc(-c3cccs3)nc12)N1CCN(C(c2ccccc2)c2ccccc2)CC1	53%	-7	/	0	-1.1
O=C(CCc1nc2ccccc2s1)NCc1ccccc1F	1%	/	1	7	/
Cc1nn2c(-c3cccc(NC(=O)CSc4nc5ccccc5o4)c3)nnc2c2ccccc12	5%	0	-6	-14	2.2
Cc1ccccc1S(=O)(=O)Cc1ccc(C(=O)NCCN2CCCCC2C)o1 (stereo not given)	-1%	-37	-12	6	-1.1
C#CCNC(=O)C1=C[C@@H](c2ccc(C#C)cc2)[C@H](CCCO)[C@@H](OCC)O1	/	/	-5	7	1.1
Nc1cccc(-n2nncc2-c2ccc(Cl)cc2)c1	2%	-5	/	4	0.8	Arbovirus anti repeat=1
CCCCCc1ccc(-c2cn(Cc3cccc(OC)c3)nn2)cc1	/	/	54	/	0.9
O=[N+]([O-])c1ccc(O)c(Nc2ncnc3ccc(Br)cc23)c1	4%	/	-7	30	6.2
CC1=Nc2ccccc2/C1=C/c1c(N)n2c(S(=O)(=O)C(C)C)nsc2nc1=O	-2%	/	6	39*	2.2
Cc1ccc2c(CN3CCN(C(=O)c4ccco4)CC3)cc(=O)oc2c1C	4%	/	5	-6	5.2
CCCCN(CC)CCNC(=O)c1cc2c(-c3ccccc3F)nn(C)c2s1	/	/	4	/	6.3
O=c1nc(-c2ccccc2)n(-c2ccccc2)c2ncccc12	-13%	-36	-3	7	-1.1
COc1cc(NC(=S)NC(=O)CCc2ccccc2)cc(OC)c1	/	/	?	/	6.6
CN1C(=O)Cc2cc(S(=O)(=O)N3CCOCC3)ccc21	-12%	5	4	2	5.7
CCC1CSC(Nc2ccc(C(=O)/C=C/c3ccc(Oc4ccccc4)cc3)cc2)=N1 (stereo not given)	7%	-3	10	-8	-1.4
Cc1cc(C(=O)N2CCCC(Nc3ccc(F)cc3)C2)n(C)n1 (stereo not given)	/	/	-14	/	-1.2
SMILES	Mtb growth	YopH inh	Mtb bLac sens	Arbovirus anti	RecA intein inh	others
CCOC(=O)C1CCN(C(=O)CCc2nc3ccccc3[nH]2)CC1	-2%	-36	14	0	0.5
CCCc1nc2c(sc3nc4c(cc32)COC(C)(C)C4)c(=O)n1Cc1ccco1	-2%	9	11	-12	4.7
Cc1cnc(NC(=O)NCC2CCCC(CNC(=O)Nc3ncc(C)s3)C2)s1 (stereo not given)	/	/	96	/	4.1
CC(C)c1ccc(C2NC(=O)c3ccccc3O2)cc1 (stereo not given)	/	/	-4	/	3.8
Cc1ccc(C)c(N2CCN(S(=O)(=O)c3ccc(-c4ccc(=O)[nH]n4)o3)CC2)c1	/	/	-1	/	-2.9
O=C1NC(=O)/C(=C\c2ccsc2)N1	0%	/	2	1	-4.6
CC1CCN(CCC(=O)Nc2ccccc2)CC1	4%	/	2	15	2.0
CC(=O)c1ccc(OCc2cc(C(=O)N3CCC(c4ccncc4)CC3)no2)cc1	/	/	3	/	2.1
O=S(=O)(c1ccccc1)N1CCC(O)(CSc2ccc(F)cc2)CC1	5%	/	-2	4	2.6
CN1CCN(C(=O)c2ccc(CNS(=O)(=O)c3cccc(Cl)c3)cc2)CC1	/	/	-1	/	-1.5
CC(C)CC(=O)NC(=S)Nc1cc(C(=O)O)ccc1Cl	-2%	-18	3	-11	3.9
O=C(CNC(=O)c1ccc(OC(F)F)cc1)NCC1CCCO1 (stereo not given)	/	/	0	/	0.2
Cc1ccc(N(CC(O)CN2C(=O)NC(C)(C)C2=O)S(=O)(=O)c2ccc([N+](=O)[O-])cc2)cc1 (stereo not given)	/	/	-5	/	0.4
O=C(/C=C/c1ccc([N+](=O)[O-])cc1)Nc1cccnc1	0%	-14	0	-7	-6.7
Cc1ccc(S(=O)(=O)N(Cc2cccnc2)Cc2cc3ccccc3[nH]c2=O)cc1	/	/	7	/	3.0
CC(C)C(C(=O)Nc1ncn[nH]1)N1C(=O)c2ccccc2C1=O (stereo not given)	11%	-20	-1	-1	-0.3
NS(=O)(=O)c1ccc(NC(=O)/C=C/c2ccco2)cc1	-3%	/	0	20	-0.6
COc1cccc(NP(=O)(Oc2ccccc2)Oc2ccccc2)c1	11%	-15	6	1	8.8
CC(=O)N1N=C(c2ccccc2)CC1c1ccc(F)cc1 (stereo not given)	/	/	-1	/	1.6
CC(=O)N1CCc2cc(Br)cc(S(=O)(=O)NCc3ccccn3)c21	-1%	-11	3	-4	-1.5
CCc1nnc(NC(=O)Cn2ccc(C(F)(F)F)n2)s1	-7%	-23	-1	8	-0.5
C=CCn1c(O)c(/C(CC)=N/NC(=S)Nc2ccccc2)c(=O)[nH]c1=O	0%	/	-1	/	1.3
CC(C)c1ccc(-c2cc(C(=O)NN3CCN(C)CC3)c3ccccc3n2)cc1	8%	-28	3	-12	2.8
O=C(Nc1ccccc1N1CCOCC1)C1CCN(S(=O)(=O)c2ccc(F)cc2)CC1	-1%	-14	13	-2	-2.7
Cc1cc(Nc2ccc3c(c2)OCCO3)n2nc(C)nc2n1	1%	-46	-5	1	-0.2	Arbovirus anti repeat=-2

Part of the list above in order of molar mass, rising:
SMILES	Mtb growth	YopH inh	Mtb bLac sens	Arbovirus anti	RecA intein inh	others
CC(C)CC(=O)NC(=S)Nc1cc(C(=O)O)ccc1Cl	-2%	-18	3	-11	3.9
O=C(CNC(=O)c1ccc(OC(F)F)cc1)NCC1CCCO1 (stereo not given)	/	/	0	/	0.2
O=S(=O)(c1ccccc1)N1CCC(O)(CSc2ccc(F)cc2)CC1	5%	/	-2	4	2.6
CC(=O)c1ccc(OCc2cc(C(=O)N3CCC(c4ccncc4)CC3)no2)cc1	/	/	3	/	2.1
CN1CCN(C(=O)c2ccc(CNS(=O)(=O)c3cccc(Cl)c3)cc2)CC1	/	/	-1	/	-1.5

The listing continues.
SMILES	Mtb growth	YopH inh	Mtb bLac sens	Arbovirus anti	RecA intein inh	others
CCOc1ccccc1NC(=O)CN(c1ccc(C)cc1)S(=O)(=O)c1c(C)n[nH]c1C	3%	-10	-1	-17	1.2
Cc1nc(N(CCO)C2CCCCC2)c2nnn(Cc3ccccc3)c2n1	/	/	100	/	0.7
CCCCNC(=O)CCc1nc2cccnc2n1Cc1ccccc1	/	/	3	/	-1.8
COCCn1c(=O)c2c(nc3n2CCCN3CCc2ccc(OC)c(OC)c2)n(C)c1=O	/	/	1	/	-3.0
Cc1nc(C(F)(F)F)ccc1C(=O)Nc1ccccc1N1CCOCC1	/	/	-10	/	0.1
CCOC(=O)C1CCN(CCC(=O)Nc2ccc(C)c(C)c2)CC1	-9%	/	-4	-4	0.9
Cc1ccc(C(=O)NC(C)c2nc3ccccc3n2CC(=O)Nc2c(C)cc(C)cc2C)cc1 (stereo not given)	-5%	/	-6	/	-3.4
O=C(CCCN1C(=O)/C(=C/c2ccco2)SC1=S)Nc1ccccc1C(=O)O	1%	/	-1	/	17
CC(C)(CO)NCC#Cc1ccccc1	4%	/	3	0	0.5
CCc1nnc(NC(=O)CSc2nnc(-c3c[nH]c4ccccc34)n2CCOC)s1	-3%	-35	-4	2	-0.9
CC(=O)c1sc(-c2ccc(Cl)cc2)cc1N	1%	/	53	/	-1.7
O=C(CCc1ccccc1)NNC(=O)c1ccc(Cl)cc1	/	/	2	/	0.1
COc1ccc2c(CC(=O)Nc3ccc(OC)c(NS(=O)(=O)c4ccc(F)cc4)c3)coc2c1	-4%	14	-1	-5	1.0
CCOc1cc(CNc2ccc(N3CCOCC3)cc2)cc(Br)c1OCC	2%	-1	3	-13	-2.0
CC(C)(C)c1ccc(-c2n[nH]c(=S)n2CCCN2CCOCC2)cc1	10%	/	-1	0	/
CN1C(=O)C(=Cc2ccc(-c3cccc(Cl)c3)o2)C(=O)N(C)C1=O	5%	4	4	-1	1.6
Cc1ccc2nc(NCC(N)=O)nc(-c3ccccc3)c2c1	4%	/	1	/	-98
CN(C)c1ccc(/C=N/Nc2nncc3ccccc23)cc1	/	/	2	/	-1.3
CC(C(=O)OCC(=O)c1ccccc1)N1C(=O)C2C3CCC(C3)C2C1=O (stereo not given)	1%	/	-4	11	-0.7
O=C(NC1CCN(S(=O)(=O)c2ccc(F)cc2)CC1)c1ccc(F)cc1	/	/	-8	/	0.3
COc1ccc(OC)c(/C=N/NC(=O)c2csc3ccccc23)c1	0%	-26	4	-10	1.8
O=C(CN1CCOc2ccccc21)NC1CCCCCCC1	-3%	-33	2	-4	-3.9	Arbovirus anti repeat=-2
CCc1ccc(/C=C2\SC(=S)N(CCCC(=O)Nc3ccccn3)C2=O)cc1	-3%	-23	-3	0	-3.7
CN(C)S(=O)(=O)c1cccc(NC(=O)COC(=O)c2ccc(Br)o2)c1	7%	1	-8	7	/
COc1cc(OC)cc(C(=O)NCC(=O)OCC(=O)N2CCc3ccccc32)c1	-5%	/	0	-2	1.0

A portion of the library (hit frequency here may not be typical).
